Tgondii IFNg: blocks Toxoplasma gondii growth in the presence of IFN-gamma | Toxoplasma gondii growth in IFN-gamma-treated host cells; stronger effect = lower value; reference of the scale not given here | activity change, negative = inhibition, %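 (about 20 µM by stock and volumes)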 | actives 3.8% (n = 69,000) | AID 1259416;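 active means below -70%; inconclusive means fit judged invalid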;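 further: host cells are HeLa cells infected with Toxoplasma gondii; parasite growth read as luciferase light; one replicate is shown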
* hit, by the source's call; i = inactive; ? = inconclusive; & = joins results of further samples; ! = repeats disagree. The list is partial; the hit share may differ from the screen's.

SMILES	Tgondii IFNg
C[C@H](CO)N1C[C@H](C)[C@@H](CN(C)C(=O)Nc2ccc3c(c2)OCO3)OCc2cn(nn2)CCCC1=O	i
O=C(c1cccnc1)N1CCOCC2(CCC(CN3CCCC3)O2)C1 (stereo not drawn)	1.0
O=C1NC(=O)C(c2ccccn2)(C2CCN(c3ncccc3Cl)CC2)N1 (stereo not drawn)	-2.1
O=C(CSc1ccc(Cl)cc1)Nc1ccc(NC(=O)c2ccco2)c(Cl)c1	12.2
Cc1oc(-c2ccc(Cl)cc2)nc1Cn1nnc(C(=O)Nc2cc(F)ccc2F)c1C	19.3
Cc1noc(C)c1CN1CCC2(CC(=O)N(c3ccc(F)cc3)C2)C1 (stereo not drawn)	7.5
CCOC(=O)C1CCN(C(=O)C2(NC(=O)NC3CCCCC3)CCCCC2)CC1	51.4
COc1cc(OC)cc(C(=O)NCCc2csc(-c3cccc(C)c3)n2)c1	i
CCN(C[C@H]1[C@H](c2ccc(-c3cccnc3)cc2)[C@H](CO)N1C(C)=O)C(C)=O	17.4
O=C1NC(=O)c2cc(Nc3ccccc3)c(Nc3ccccc3)cc21	-8.7
c1ccc(N2CCN(Cc3nc4ccccc4[nH]3)CC2)nc1	25.4&15.8
Cc1ccccc1NC(=O)N1CC2CC(C(=O)N(C)C)C(C1)O2 (stereo not drawn)	-7.6
CC(=O)N1CC2CCC(C1)C2C(=O)NCCc1cccs1 (stereo not drawn)	-37.0
CCc1ccccc1NC(=O)N1CCc2nc(N3CCCC3)nc(C)c2CC1	9.8
COc1ccc2c(c1)NC1(CCN(C(=O)c3ccc(F)cc3)CC1)c1cccn1-2	8.2
CC(=O)O[C@@H]1C[C@@]2(C)C(CC[C@@H]2C(C)=O)C2CCC3=CC(=O)CC[C@]3(C)C21 (stereo partly drawn)	13.1
CCn1nc(C)c(CCNC(=O)c2ccc(-c3nc(CN4CCc5ccccc54)c(C)o3)cc2)c1C	-26.2
COc1ccc(NC(=O)COC(C)C)cc1NC(=O)c1ccccc1	3.4
Cc1ccc(NC(=O)C(c2ccccc2)c2ccccc2)nc1	-2.2
COC[C@@H]1CN(CC2CC2)C[C@@]12CCN(C(=O)Cc1ccc(C)cc1)C2	3.4

4 of these compounds, reformatted.
> O=C(c1cccnc1)N1CCOCC2(CCC(CN3CCCC3)O2)C1 (stereo not drawn)
  Tgondii IFNg: 1.0
> Cc1ccccc1NC(=O)N1CC2CC(C(=O)N(C)C)C(C1)O2 (stereo not drawn)
  Tgondii IFNg: -7.6
> COc1cc(OC)cc(C(=O)NCCc2csc(-c3cccc(C)c3)n2)c1
  Tgondii IFNg: i
> CCOC(=O)C1CCN(C(=O)C2(NC(=O)NC3CCCCC3)CCCCC2)CC1
  Tgondii IFNg: 51.4

The listing continues:
SMILES	Tgondii IFNg
COc1cc(O)c(C)c(O)c1	19.9
COc1cc2c(cc1CNC(=O)c1cnc(C3CC3)nc1C)OCCO2	4.7
Cc1ccc(C)c(NC(=O)Cn2cnc3cc(C)c(C)cc32)c1	-66.8
CN1CCC(n2cnc(-c3ccccc3)c2-c2cccc3cccnc23)CC1	1.8
CNc1nc(-c2cc(NC3CCNCC3)nc3[nH]ccc23)nc2c1CCC2	?
COc1ccc(C(C)NC(=O)c2ccc(Cc3c(C)noc3C)s2)cc1F (stereo not drawn)	32.0
Cn1c(CN2C[C@@H](c3ccccc3F)[C@@]3(CCCCC(=O)N3)C2)nc2ccccc21	-4.3
CC(C)c1cc(CNCC(=O)NCc2ccccc2F)no1	21.7
O=C(O)c1nccnc1C(=O)Nc1cc(Cl)c(-n2cccc2)cc1Cl	61.6
C=CCn1c(=O)c(-c2nc(-c3ccc(C)cc3)no2)c(O)c2ccccc21	-12.0
O=C(NCCc1csc(-c2cccc(F)c2)n1)C(=O)Nc1ccccc1F	-27.0
Cc1cc(Nc2ccc(Br)cc2)nc(-c2ccccc2O)n1	-84.9*
COCCn1cnnc1C(C)NC1CCSCC1 (stereo not drawn)	8.5
CC(C(=O)NCc1cn2c(n1)SCC2)N1C(=O)c2cccc3cccc1c23 (stereo not drawn)	-7.6
CC(C)N(Cc1cnn(C)c1)C(=O)COc1cccnc1	-0.9
COc1cccc(CN2CCCC(c3ccc4c(NCc5cccc(C)n5)n[nH]c4n3)C2)c1 (stereo not drawn)	-83.4*
CC(=O)N1CCC2(CC1)CN(C(=O)c1nc(Cl)sc1C(C)C)C2	-1.3
COc1ccc(NC(=O)N2CCC(c3nc(C(=O)N(C)C)c(C)o3)CC2)cc1Cl	71.2
Cc1ncc(C(=O)NCc2ccccc2)c(CCNC(=O)c2ccc3c(c2)nc(C)n3C)n1	0.8
Cn1cnc2c1c(=O)n(CC(O)CO)c(=O)n2C (stereo not drawn)	-8.7

Single entries from the list.
Entry of Cc1ncc(C(=O)NCc2ccccc2)c(CCNC(=O)c2ccc3c(c2)nc(C)n3C)n1 in Tgondii IFNg: 0.8
Entry of COc1ccc(C(C)NC(=O)c2ccc(Cc3c(C)noc3C)s2)cc1F (stereo not drawn) in Tgondii IFNg: 32.0
Entry of COc1cccc(CN2CCCC(c3ccc4c(NCc5cccc(C)n5)n[nH]c4n3)C2)c1 (stereo not drawn) in Tgondii IFNg: -83.4*
Entry of CC(C(=O)NCc1cn2c(n1)SCC2)N1C(=O)c2cccc3cccc1c23 (stereo not drawn) in Tgondii IFNg: -7.6
Entry of Cc1ccc(C)c(NC(=O)Cn2cnc3cc(C)c(C)cc32)c1 in Tgondii IFNg: -66.8
Entry of O=C(O)c1nccnc1C(=O)Nc1cc(Cl)c(-n2cccc2)cc1Cl in Tgondii IFNg: 61.6
Entry of COc1cc2c(cc1CNC(=O)c1cnc(C3CC3)nc1C)OCCO2 in Tgondii IFNg: 4.7

Going on with the list:
SMILES	Tgondii IFNg
COc1ccc(-c2nc(Nc3ccc(OC)c(Cl)c3)c3ccccc3n2)cc1	-41.1
OC(CN1CCN(c2ccccn2)CC1)c1ccc2c(c1)OCCCO2 (stereo not drawn)	6.7
CCCN1CCN(C(=O)c2cnccn2)C(Cc2cccc(-c3ccccc3)c2)C1=O (stereo not drawn)	-23.0
Cc1nnc(NC(=O)CSc2nnc(-c3cccs3)n2C)s1	-4.3
O=C1CC2(CCN(C(=O)C3CCOCC3)CC2)CN1Cc1cccnc1	2.8
Cc1cnc(C(=O)N2CCCCC2C2CCN(C(=O)Cc3csc(C)n3)CC2)cn1 (stereo not drawn)	296.0
Cn1c(SCC(=O)Nc2cccc(C(=O)O)c2)nnc1-c1cnccn1	5.4
COc1ccc(-c2ccc3n(c2=O)C[C@H]2[C@H](CO)[C@@H](C(=O)NCC4CC4)N(C(=O)NC(C)C)[C@@H]32)cc1	-25.0
COCCN1CCc2ncnc(-c3ccsc3)c2CC1	3.6
O=C(CC(F)(F)F)N1CCC2(CCCN(c3ncccn3)C2)CC1	4.4
CC(=O)N1CCC2(CC1)OC(=O)C(C)=C2C(=O)Nc1ccc(C)c(C)c1	-31.6
c1coc(-c2ccc(-c3nccn3CCn3cccn3)cc2)c1	-2.9
COc1ccc(NC(=O)N2CC[C@@H]3[C@H]2c2cc(C4=CCCCC4)ccc2N(C)[C@H]3CO)cc1	-45.9
Cn1cc(N2C(=O)CC3C2CCN3C(=O)Cc2ccccc2)cn1 (stereo not drawn)	66.3
Cc1occc1C(=O)N1CC[C@H](OCC2CC2)[C@@H](Cc2ccccc2)C1	6.2
COc1ccc(OC)c(C2CCN(Cc3ncccc3C(=O)O)C2)c1 (stereo not drawn)	4.0
COc1ccc(-c2ccncc2C)c(OC)c1	2.3
Cc1cccc(NC(=O)Cn2ncc3c(N4CCCCCC4)ncnc32)c1C	-0.3
COc1ccc(-n2cccn2)c(CN2CCCN(C)C3(CCN(C)CC3)C2)c1	-22.4
Cc1cc(C(F)(F)F)n2nc(C3CCCCN3S(=O)(=O)c3ccc(F)cc3)cc2n1 (stereo not drawn)	-3.4
CN(CCc1ccccc1)Cc1cc(C(=O)N2CCN3CCCC3C2)no1 (stereo not drawn)	-15.7
CCc1ccc(Nc2nc(C(=O)NC3CCCCC3)nc3ccccc23)cc1	20.3
CC(=O)NC(C)CC(=O)Nc1ccc(C(=O)OC2CCCC2)cc1 (stereo not drawn)	145.3
Cc1cccc(-n2cc(CN(C)Cc3c(C)noc3C)cn2)c1	-4.9
Cc1onc(-c2c(F)cccc2Cl)c1C(=O)N[C@@H]1C(=O)N2[C@@H]1SC(C)(C)[C@@H]2C(=O)O	21.3
CC1=C(C(=O)NCc2cccc(Br)c2)C2(CCN(S(C)(=O)=O)CC2)OC1=O	-67.9
Cc1nc2ccc(C(=O)N3CCCC(NC(=O)c4cnccn4)CC3)cc2[nH]1 (stereo not drawn)	22.3
CN1C(=O)c2cc(NC(=O)c3cccc(F)c3)ccc2OC[C@H]2O[C@@H](CC(=O)NCc3ccccc3Cl)CC[C@@H]21	-17.3
Cn1cc(C[C@@H](N)C(=O)O)c2ccccc21	-27.8
CCOC(=O)c1cc(Sc2cccc(OC)c2)cc(C(=O)OCC)n1	22.0
Oc1ccc(-c2nc3cc(O)cc(Br)c3o2)cc1	79.2
COc1ccc(CNc2nc(-c3nnc(-c4ccccc4)o3)nc3ccccc23)cc1	i
CCCOC1CCCN(Cc2cc3cc(OC)ccc3[nH]c2=O)C1 (stereo not drawn)	-2.4
COc1ccc(CC(=O)N2CCN(S(=O)(=O)c3cc4c5c(c3)CCC(=O)N5CCC4)CC2)cc1	-1.9
COc1cccc(C(=O)Nc2cccc(C(=O)NCC(C)C)c2)c1	-25.3
Cc1nn(CC(=O)N2C3CCC2CC(c2ccc(F)cc2)C3)c(=O)c2ccccc12 (stereo not drawn)	-15.1
CCOCC1CC2(CCN(Cc3cnn(C)c3)CC2)CO1 (stereo not drawn)	-51.0
COC(=O)C(C#N)(Cc1ccccc1)Cc1ccccc1	42.6
CCc1cccc(Nc2nc(-c3ccc(OC)cc3)nc3ccccc23)c1	-19.5
CCN(CC)C(=O)c1cc(=O)n(CC(=O)Nc2ccc(F)cc2F)c2ccccc12	14.1
CCOC(=O)c1nnn(-c2cc(Cl)cc(Cl)c2)c1Sc1ccccn1	-41.3
CCOc1ccc(-c2nc(Cc3noc(-c4ccccn4)n3)c(C)o2)cc1	-22.1
COc1ccccc1-c1ccccc1[C@@H]1[C@H](C#N)N(C(=O)CN(C)C)[C@H]1CO	-3.6
CC1(C)CC(c2nccn2Cc2cnn(Cc3ccccc3)c2)CCO1 (stereo not drawn)	4.9
CCC(Oc1ccccc1OC)C(=O)N1CCC(c2ccc(Nc3ccccn3)cn2)CC1 (stereo not drawn)	-8.9
COc1cccc2cc(-c3ccccc3)c(=O)oc12	228.8
CC(=O)CC1N(C2CCCC2)C(=O)C2N(Cc3ccc(Cl)cc3)C(=O)C3CC(=O)OC321 (stereo not drawn)	-41.8
Cc1ncc(-c2c(-c3ccccc3)ncn2CCNC(=O)c2ccncc2)s1	-1.5
O=C(Cn1ncc2c(N3CCCCCC3)ncnc21)N1CCN(c2ccccc2)CC1	-49.5
COc1ccc(C[C@H]2CCc3cnnn3COCCNC2=O)cc1	-21.9
O=C(NCCC1=CCCCC1)c1ccc(Cl)c(S(=O)(=O)N2CCOCC2)c1	-2.1
CC(Cn1cncn1)Nc1ccc(-c2nc(-c3ccccc3F)no2)cn1 (stereo not drawn)	175.0
C=CCN1C(=O)CCC12CCCN(C(=O)c1cnn(C)c1)CC2 (stereo not drawn)	-1.2
O=C(Nc1cccc2c(=O)cc(-c3nn[nH]n3)oc12)c1ccc(OCCCCc2ccccc2)cc1	12.2&9.3
CC(C)c1ccc(NC(=O)CSc2n[nH]c(=O)n2-c2ccc3c(c2)OCCO3)cc1	-67.6
COc1ccc(S(=O)(=O)NCCc2sc(-c3ccc(F)cc3)nc2C)cc1F	35.7
CNC(=O)C[C@@H]1CC[C@@H]2[C@H](COc3ccc(NS(=O)(=O)c4ccc(F)cc4)cc3C(=O)N2C)O1	12.8
CC(C)CC(NS(=O)(=O)c1ccc2[nH]c(=O)ccc2c1)C(=O)N1CCN(C)CC1 (stereo not drawn)	101.5
CCc1nc(CN2CCC(c3[nH]ncc3-c3ccccc3)CC2)c(C)[nH]1	-17.6
COCCN1CCC(c2nnc3ccc(C(=O)NCCc4ccncc4)cn23)C1 (stereo not drawn)	4.6
Other compounds follow.
SMILES	Tgondii IFNg
C[C@]12OC(C[C@]1(O)CO)n1c3ccccc3c3c4c(c5c6ccccc6n2c5c31)CNC4=O	-82.1*
O=C(c1cc2cccnc2n(Cc2ccccc2F)c1=O)N1CCN(c2ccccc2Cl)CC1	7.1
Cc1cnc(C(=O)N2CCC3(CC2)CC(OCC(C)C)C3)cn1	-4.1
O=C(c1cccc(Cl)c1)N1CCC2(CC1)Nc1cc(F)ccc1-n1cccc12	50.9
CN(C)S(=O)(=O)c1ccc(CNC(=O)c2cc(-c3ccc(F)cc3)no2)cc1	-11.9
CCSc1ncc(-c2c(-c3ccccc3)ncn2Cc2ncc[nH]2)cn1	-15.2
Cc1ccc2nc(NC3=NC(CC(=O)O)C(=O)N3)nc(C)c2c1 (stereo not drawn)	9.7
CC(C)n1c2ccccc2c2c1cc(C(=O)NCC1CCCO1)n2S(C)(=O)=O (stereo not drawn)	41.7
Cc1nc(OCC(=O)Nc2cc(F)ccc2F)c2ccccc2n1	-0.3
Cc1ccc(-c2nnc(-c3nc(Nc4ccc5c(c4)OCCO5)c4ccccc4n3)o2)cc1	-20.1
Cc1nc(CCNC(=O)Cc2c(C)[nH]c3c(F)cccc23)nc2c1CCC2	0.9
Cc1noc(C)c1CN1CC2(CCN(C(=O)N(C)C)C2)CC1=O (stereo not drawn)	28.6
CC(C)(C)CC(=O)NCCc1csc(-c2ccc(Cl)cc2)n1	-39.1
CCC(C(=O)N1CCCN(C)C2(CCN(C)CC2)C1)n1cccn1 (stereo not drawn)	10.5
CC(=O)Oc1ccccc1C(=O)Oc1ccccc1C(=O)O	4.6
CN(C)CCN1CCC2(CC1)CN(c1ncccn1)Cc1ccccc12	-6.6
COc1ccc(NC(=O)c2nnn(Cc3nc(-c4ccccc4)oc3C)c2C)c(OC)c1	86.3
O=C(C1CCOCC1)N1CC(=O)N2[C@H](CO)[C@@H](c3ccc(C#CC4CCCCC4)cc3)[C@H]2C1	-15.3
O=C(NCCc1csc(-c2ccccc2)n1)c1cccc(Cl)c1	137.9
Cc1[nH]c2ccccc2c1CCNCc1ccc(/C=C/C(=O)NO)cc1	-81.6*!
CN(Cc1cccc(Cl)c1)c1nc(-c2cccnc2)nc2c1cnn2C	-82.4*
